PV pol inh: poliovirus RdRp elongation inhibitors, primary screen, biochemical, fluorescence polarization, total intensity; % elongation, % (compound at 16.7 µg/mL); 150,000 compounds, 0.66% hits; AID 588519, 2011; poliovirus polymerase elongation; stronger effect = lower value; Genome polyprotein (Poliovirus type 1 (strain Mahoney)), P03300; in the data active means % elongation below about 90%; further: some results filed as inactive read as strong as hits
Target sequence (P03300 1749-2209 limits assumed): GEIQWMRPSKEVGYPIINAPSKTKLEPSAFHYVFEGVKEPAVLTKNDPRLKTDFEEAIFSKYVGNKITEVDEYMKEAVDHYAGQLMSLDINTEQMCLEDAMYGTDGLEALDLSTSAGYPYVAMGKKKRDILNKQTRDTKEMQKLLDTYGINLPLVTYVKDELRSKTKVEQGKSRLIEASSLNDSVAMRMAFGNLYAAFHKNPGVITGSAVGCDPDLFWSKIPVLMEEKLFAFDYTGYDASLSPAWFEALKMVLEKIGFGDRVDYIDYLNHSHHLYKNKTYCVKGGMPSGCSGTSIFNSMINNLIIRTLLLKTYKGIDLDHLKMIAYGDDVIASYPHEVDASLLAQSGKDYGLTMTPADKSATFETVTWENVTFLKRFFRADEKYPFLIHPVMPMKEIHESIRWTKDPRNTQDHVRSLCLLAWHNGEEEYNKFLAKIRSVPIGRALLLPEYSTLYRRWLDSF
PV pol inh intensity: recorded beside PV pol inh, whose call it bears; % elongation; measured here: total intensity read-out; formula for this scale not given here;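 total fluorescence in place of polarization; lower means less elongation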
Active calls of the source: *. Some of the compounds tested; the hit share may differ from the screen's.

SMILES | PV pol inh | PV pol inh intensity
COc1ccc(CCNC(=O)CS(=O)(=O)Cc2nc(-c3cccc(Cl)c3)oc2C)cc1OC | 102 | 103
COc1cccc(-c2cn3c(n2)sc2cc(C(=O)NCCc4ccc(OC)c(OC)c4)ccc23)c1 | 105 | 110
CC(C)C(NS(=O)(=O)c1cccc2cccnc12)C(=O)Nc1ccc(OC(F)(F)F)cc1 (stereo unspecified) | 112 | 112
CCOC(=O)c1oc2c(c1C)-c1nn(Cc3ccc(Cl)cc3)cc1CC2 | 106 | 103
Cc1ccc(-n2c(=O)c3c(cnn3C)n(CC(=O)Nc3cccc(C)c3)c2=O)cc1 | 103 | 105
CCc1cccc(NC(=O)C(Cc2ccccc2)n2cccc2)c1 (stereo unspecified) | 103 | 107
CCOC(=O)c1c(NC(=O)c2ccc(C)cc2)sc2c1CCCCC2 | 104 | 111
O=C(COc1ccc(Cl)cc1)Nc1ccc(Cl)cc1C(=O)c1ccccc1 | 100 | 110
Cn1c(=O)c2c(SCC(=O)N3CCc4ccccc43)nc(-c3ccccc3Cl)nc2n(C)c1=O | 101 | 107
Fc1ccc(-n2ncc3c(NCCCn4ccnc4)ncnc32)cc1 | 109 | 114
COc1ccc(NC(=O)Nc2nnc(N(CC(C)C)CC(C)C)s2)c(OC)c1 | 110 | 112
Cc1ccc(C(=O)Nc2nnc(S(=O)(=O)N(C)Cc3ccc(F)cc3)s2)cc1 | 107 | 109
O=C(O)c1ccc(N2C(=O)c3[nH]nc(-c4ccccc4)c3C2c2cccc(F)c2)cc1 (stereo unspecified) | 110 | 109
CCCCNc1cc(N2CCN(C3CCCCC3)CC2)c2noc3c2c1C(=O)c1ccccc1-3 | 132 | 144
CCc1ccc(NC(=O)CSc2nc3nc(C)cc(C)n3n2)cc1 | 101 | 103
O=C(NC1CCCCC1)c1ccc2c(c1)sc1nc(-c3ccccc3)cn12 | 104 | 108
CC1=C(C(=O)Nc2ccccc2)C(c2cccs2)n2nc(SCc3ccccc3F)nc2N1 (stereo unspecified) | 101 | 102
CCOc1cc2[nH]c(=O)n(CCCCC(=O)N3CCN(c4ccc(OC)cc4)CC3)c(=O)c2cc1OCC | 109 | 112
Cc1cccc(-n2c(C)nc3cc(C(=O)NCCC4=CCCCC4)ccc32)c1 | 108 | 107
Cc1ccc(-c2nnn3c2nc(NCC(C)c2ccccc2)c2ccccc23)cc1 (stereo unspecified) | 104 | 108
CCOc1ccccc1CNC(=O)CN(c1ccc(C)cc1)S(=O)(=O)N(C)C | 108 | 111
COc1ccccc1C(=O)Nc1ccccc1OCc1cc(=O)n2cc(C)sc2n1 | 108 | 107
COc1ccc(S(=O)(=O)NCc2ccc3c(c2)CCN3C(C)=O)cc1OC | 110 | 112
Cc1cc(C)c(-c2csc(-c3cc4ccccc4oc3=O)n2)cc1C | 106 | 105
CN1C(=O)Cc2cc(S(=O)(=O)CCC(=O)N3CCN(c4cccc(Cl)c4)CC3)ccc21 | 107 | 114

Later entries.
SMILES | PV pol inh | PV pol inh intensity
Cc1noc(/C=C/N(C)C)c1S(=O)(=O)N1CCCC(C(=O)Nc2cccc(F)c2)C1 (stereo unspecified) | 107 | 106
COc1cccc(OCCSc2nc3ccccc3n2CC(=O)N2CCOCC2)c1 | 107 | 103
CCOc1ccc(NC(=O)C(C)Sc2nnc3cc(C)c4ccccc4n23)cc1 (stereo unspecified) | 104 | 103
COc1cccc(N2CC(NC(=O)/C=C\c3ccccc3)CC2=O)c1 (stereo unspecified) | 105 | 111
Cc1cc(C)c(NC(=O)c2cc(CN3CCOCC3)on2)c(C)c1 | 97 | 106
COc1ccc(C2C(=O)N(C3CCCCCC3)CC(=O)N2CCc2ccc(OC)c(OC)c2)cc1 (stereo unspecified) | 111 | 111
COc1cccc(OCC(=O)Nc2nnc3n2CCS3)c1 | 109 | 114
COc1ccccc1CNC(=O)C1CCN(Cc2nc(-c3ccc(OC)c(OC)c3)oc2C)CC1 | 105 | 105
O=C(Cn1ccc2cc(S(=O)(=O)N3CCCC3)ccc21)NCc1ccccc1Cl | 103 | 108
COC(=O)c1cccc(NC(=O)c2nsc3ccccc23)c1 | 108 | 102
COc1cccc(CNC(=O)C2CCN(c3nnc(-n4c(C)ccc4C)s3)CC2)c1 | 104 | 111
Cc1ccc(CCNC(=O)c2cc(C)nc3c2c(C)nn3-c2ccc(C)cc2)cc1 | 107 | 115
CCOC(=O)c1ccc(NC(=O)C(CC)Sc2nc3ncccc3o2)cc1 (stereo unspecified) | 105 | 110
Cc1ccc(CNC(=O)C2CCN(S(=O)(=O)c3ccc(F)cc3)CC2)cc1 | 91 | 91
COc1ccc(CCNC(=O)C2CCN(c3nc4ccccc4nc3C(F)(F)F)CC2)c(OC)c1 | 105 | 113
COc1ccc(Nc2nnc(-c3cc4cc(Cl)ccc4oc3=O)s2)cc1 | 104 | 113
COc1ccc(Cl)cc1NC(=O)Cn1nnc(C(=O)NCc2cccs2)c1N | 109 | 113
Cc1ccc(Cn2c(CNS(=O)(=O)c3ccc(Cl)s3)nc3cccnc32)cc1 | 111 | 112
CCOc1ccc(NS(=O)(=O)c2cc(Br)cc3c2N(C(=O)C2CC2)CC3)cc1 | 112 | 113
CCOC(=O)C1=C(CN2CCCCC2)NC(=O)NC1c1ccc(OC)cc1 (stereo unspecified) | 106 | 110
O=C1C(c2ccc(F)cc2)N(CCc2ccccc2)C(=O)CN1C1CCCCC1 (stereo unspecified) | 111 | 109
CCCOC(=O)c1c(NC(=O)c2nc3ncccn3n2)sc(C(N)=O)c1C | 105 | 106
Cc1cn2c(=O)cc(COc3ccc(NC(=O)c4ccccc4C)cc3)nc2s1 | 111 | 104
COc1cccc(-c2nn(C)c3sc(C(=O)NCCc4cccc(C)c4)cc23)c1 | 109 | 106
COc1ccc(N2CCN(C(=O)Cn3cnc4nc5c(cc4c3=O)CCCC5)CC2)cc1 | 109 | 111

More records
SMILES | PV pol inh | PV pol inh intensity
COC(=O)c1cc(C)nc2c1c(=O)nc(SCc1ccccc1C)n2C1CC1 | 106 | 108
COc1ccc(NC(=O)CC2C(=O)N(c3ccccc3)C(=O)N2CCC2=CCCCC2)cc1 (stereo unspecified) | 101 | 102
COc1ccc(CN(Cc2ccco2)c2cnc(S(C)(=O)=O)nc2C(=O)Nc2ccc(C)c(C)c2)cc1 | 102 | 100
CCOC(=O)c1cc(-c2ccc(OC)cc2)n(CCC(=O)Nc2cccc(C)c2C)c1C | 101 | 107
Cc1c(C(=O)NCc2ccccc2Br)oc2ccc3c(c12)C(=O)CC(C)(C)O3 | 113 | 114
Cc1ccc(C)c(N2CCN(S(=O)(=O)c3ccc4c(c3)n(C)c(=O)c(=O)n4C)CC2)c1 | 104 | 109
COc1ccccc1Nc1nc(-c2ccccc2F)nc2ccccc12 | 105 | 109
COc1cc(CN2CCN(S(=O)(=O)c3ccccc3)CC2)cc(OC)c1O | 108 | 110
CC(C)OCCCNC(=O)CN1C(=O)CSc2ccc(S(=O)(=O)N3CCCCC3)cc21 | 117 | 115
Cc1ccc(NC(=O)CSc2nc3c(oc4ccccc43)c(=O)n2-c2ccc(F)cc2)c(C)c1 | 104 | 109
Cc1nn(C)c(C)c1S(=O)(=O)N(CC(=O)NCCc1ccccc1)c1ccc(C(C)C)cc1 | 103 | 108
Cc1ccc(N2CC3=C(C2=O)C(c2ccc(Br)cc2)NC(=O)N3C)cc1 (stereo unspecified) | 107 | 109
COc1ccc(C(=O)NCCc2sc(-c3ccc(F)cc3)nc2C)cc1OC | 107 | 113
COc1cccc(N2CC(NC(=O)c3cc4ccccc4o3)CC2=O)c1 (stereo unspecified) | 105 | 110
Cc1nn(C(=O)c2ccc(Cl)cc2)c(C)c1S(=O)(=O)N1CCOCC1 | 97 | 93
CCCn1c(SCc2nc(-c3ccccc3C)no2)nnc1-c1ccc(Cl)cc1 | 112 | 114
CCC1Oc2ccccc2N(CC(=O)NCc2ccc(C)cc2)C1=O (stereo unspecified) | 112 | 104
Cc1c(-c2nc(-c3ccccc3F)no2)nnn1-c1cc(F)ccc1F | 98 | 104
CCCn1c(=N)c(C(=O)NCc2cccnc2)cc2c(=O)n3cccc(C)c3nc21 | 112 | 114
O=C(Cn1c(SCc2ccccc2F)nc2cccnc21)Nc1ccc(F)c(Cl)c1 | 109 | 112
Cc1ccc(S(=O)(=O)C(CNC(=O)c2ccc(F)c(F)c2)c2ccco2)cc1 (stereo unspecified) | 111 | 113
O=C(CSc1nc2ncccc2o1)Nc1ccc(Cl)cc1F | 100 | 105
Cc1ccc(OCCSc2nc3ccccc3n2CC(=O)N2CCCCC2)cc1C | 114 | 105
CCc1cccc(NC(=O)CCNS(=O)(=O)c2ccc3c(c2)CCN3C(C)=O)c1 | 107 | 110
Cc1c(Cl)cccc1-n1ncc(C(=O)Nc2ccc(Br)cc2F)c1C1CCNCC1 | 103 | 106

(continued)
SMILES | PV pol inh | PV pol inh intensity
O=[N+]([O-])c1cc(-c2nc(-c3ccccn3)no2)ccc1NCc1ccccc1 | 111 | 116
CCC(Cn1nnc2ccccc2c1=O)NC(=O)Nc1cc(OC)cc(OC)c1 (stereo unspecified) | 104 | 109
Cc1nc2ccn(Cc3ccccc3)c(=O)c2cc1C(=O)NCc1ccccc1F | 114 | 110
COc1ccccc1CNC(=O)CCC(=O)N1CC(C)Sc2ccccc21 (stereo unspecified) | 106 | 100
CCOCCc1nn2c(=O)cc(COC(=O)C(CC)c3ccccc3)nc2s1 (stereo unspecified) | 105 | 109
O=C(Nc1ccc(Cl)c(C(F)(F)F)c1)c1nc2ccccc2nc1N1CCCCC1 | 116 | 111
Cc1nnc(NC(=O)CSc2nccn2-c2cccc(Cl)c2)s1 | 103 | 108
COc1ccc(C)c2sc(NC(=O)c3ccc(S(=O)(=O)N(C)C)cc3)nc12 | 112 | 120
COc1ccccc1CNC(=O)CCCc1nnc2n(CC(C)C)c(=O)c3sccc3n12 | 115 | 103
O=C(Cn1ccn(-c2ccc(F)cc2)c(=O)c1=O)Nc1ccc(F)cc1 | 108 | 108
CCc1cccc(NC(=O)Cn2c(=O)n(-c3cccc(Cl)c3)c(=O)c3c2c2cc(C)ccc2n3C)c1 | 105 | 108
CCCOc1ccc(CN(C(=O)c2nc(SC(C)C)ncc2Cl)C2CCS(=O)(=O)C2)cc1 (stereo unspecified) | 109 | 111
CCOc1ccc(N2CC(NC(=O)c3ccco3)CC2=O)cc1 (stereo unspecified) | 109 | 102
CCC(C(=O)NCc1ccccc1Cl)n1nc(C)c2sc3ccccc3c2c1=O (stereo unspecified) | 109 | 101
Cc1ccc(C)c(N2CCN(C(=O)c3cc4c(=O)n(Cc5ccco5)ccc4nc3C)CC2)c1 | 107 | 116
Cc1ccccc1CNC(=O)C1CCN(c2nnc(C)c3c(C)n(-c4ccccc4)nc23)CC1 | 113 | 112
Cc1ccc(Cn2c(=O)c3cccnc3n(Cc3ccc(F)cc3)c2=O)cc1 | 109 | 114
COc1ccc(C)cc1NC(=O)N(Cc1ccc(C)o1)C1CCN(C(C)=O)CC1 | 116 | 103
O=C(NC1CCCC1)c1ccc2c(c1)N(Cc1ccc(F)cc1)C(=O)c1ccccc1S2 | 107 | 110
Cc1c(C(=O)N(C)C)sc2c1c(=O)n(-c1ccc(Cl)c(Cl)c1)c(=O)n2Cc1ccc(F)cc1 | 109 | 116
Cc1ccccc1NC(=O)CSc1nnc(COc2ccc(Cl)cc2)o1 | 105 | 105
COc1ccc(CNC(=O)c2ccc(CNS(=O)(=O)c3ccc(F)cc3)cc2)cc1 | 105 | 107
CCOc1ccc(NCc2cccn2-c2nnc(N3CCC(C(=O)NCC(C)c4ccccc4)CC3)s2)cc1 (stereo unspecified) | 111 | 110
Cc1cc(C)c(S(=O)(=O)Nc2ccc3oc4c(c3c2)CCCC4)cc1C | 110 | 110
CC(C)CC(NS(=O)(=O)c1ccc2c(c1)oc(=O)n2C)C(=O)NCCc1ccc(Cl)cc1 (stereo unspecified) | 102 | 104

The listing continues.
SMILES | PV pol inh | PV pol inh intensity
O=C(NCc1cccc(Cl)c1)c1c2c(nc3ccccc13)C(=O)N(C1CCCCC1)C2 | 110 | 100
CN1C(=O)C2(c3ccccc31)N(c1ccc(Br)cc1)C(=O)CS2(=O)=O (stereo unspecified) | 111 | 114
Cc1nn(C(=O)c2cccc([N+](=O)[O-])c2C)c(C)c1S(=O)(=O)N1CCOCC1 | 110 | 112
CCOc1ccc(NC(=O)C(=O)NCCc2csc(-c3ccc(C)cc3)n2)cc1 | 110 | 114
COc1cccc(NC(=O)c2oc3ccc(S(=O)(=O)N4CCCCCC4)cc3c2C)c1 | 108 | 110
COc1cc(NC(=O)Cn2cnc3sc(C)c(S(=O)(=O)N4CCC(C)CC4)c3c2=O)cc(OC)c1OC | 106 | 105
Cc1cn2c(=O)cc(COC(=O)c3cccc(NC(=O)COc4ccccc4)c3)nc2s1 | 108 | 115
CC(=O)c1ccc(NC(=O)CCc2c(C)nn(-c3ccc4nncn4n3)c2C)cc1 | 106 | 103
CCOc1ccc(-n2c(C)nc3cc(C(=O)NCCC4=CCCCC4)ccc32)cc1 | 105 | 106

Reformatted as labelled records: entries from further up.
compound: Cc1cccc(-n2c(C)nc3cc(C(=O)NCCC4=CCCCC4)ccc32)c1
  PV pol inh = 108 | PV pol inh intensity = 107

compound: Cc1c(Cl)cccc1-n1ncc(C(=O)Nc2ccc(Br)cc2F)c1C1CCNCC1
  PV pol inh = 103 | PV pol inh intensity = 106

Laid out differently: six of the compounds above.
Molecule	PV pol inh	PV pol inh intensity
CCC1Oc2ccccc2N(CC(=O)NCc2ccc(C)cc2)C1=O (stereo unspecified)	112	104
CCOC(=O)c1c(NC(=O)c2ccc(C)cc2)sc2c1CCCCC2	104	111
O=C(NCc1cccc(Cl)c1)c1c2c(nc3ccccc13)C(=O)N(C1CCCCC1)C2	110	100
COc1ccc(C)cc1NC(=O)N(Cc1ccc(C)o1)C1CCN(C(C)=O)CC1	116	103
COc1cccc(CNC(=O)C2CCN(c3nnc(-n4c(C)ccc4C)s3)CC2)c1	104	111
O=C(Cn1c(SCc2ccccc2F)nc2cccnc21)Nc1ccc(F)c(Cl)c1	109	112

Compound activity: PubChem, ICCB-Longwood Screening Facility, Harvard Medical School
